Rango release inh = qHTS Assay for Inhibitors of RanGTP induced Rango (Ran-regulated importin-beta cargo) - Importin beta complex dissociation; Snurportin-1 (Homo sapiens) + GTP-binding nuclear protein Ran (Homo sapiens) + Importin …; Biochemical FRET Rango-importin beta, RanGTP-induced dissociation; Potency, µM (top dose mostly 46.1 µM), for the others: at the top dose activity change, negative = inhibition; 0.071% of 340,000 active; AID 540253, 2011; active means falling FRET ratio curve, often poorly fitted, with flat reads before Ran was added; inconclusive means other falling curves, or compound fluorescence or quenching; inactive means flat or rising ratio curve;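 also: potency is read from the fitted curve at half-maximal effect; % of control where 0% means no effect; nearly all actives have a fitted effect of over 45% in size; -100% = wells without RanGTP and RCC1; the record marks most hits as doubtful in a second field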
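Compounds preincubate 5 min with complex of recombinant Rango and importin beta in PBS with 1 mM DTT. Ran (0.6 uM) loaded with 2 mM GTP plus 0.2 uM RCC1 starts dissociation; FRET is recorded 45 min later.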
Rango-impB inh = qHTS Assay for Inhibitors of Rango (Ran-regulated importin-beta cargo) - Importin beta complex formation; AID 540263, 2011; Potency, µM (doses to about 92.2 µM), for inactives: at the highest dose inhibition of complex formation; 0.031% of 340,000 active; Rango CFP/YFP FRET sensor + importin beta, 45 min; active = rising FRET ratio curve, often small or poorly fitted; inconclusive = mostly compound fluorescence or quenching in the first reads; inactive = flat curves in all reads;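 also: potency is read from the fitted curve at half-maximal effect; 0% = DMSO wells and 100% = buffer wells lacking importin beta; nearly all actives have a fitted effect of over 15% in size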
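FRET biosensor Rango (snurportin 1 IBB between N-terminal EYFP and C-terminal Cerulean), 50 nM in PBS/1 mM DTT/0.02% Tween-20/0.1% BSA, preincubated 5 min RT with compound; 0.125 microM importin beta added, 45 min RT, CFP/YFP FRET ratio read.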
GLA inh pH 4.5 = qHTS Assay for Inhibitors of Human alpha-Galactosidase at pH 4.5; Alpha-galactosidase A (Homo sapiens), P06280; purified enzyme, 4-MU-alpha-Gal fluorescence, pH 4.5; activity change, negative = inhibition, % at 105 µM; 230,000 tested, under 10 active; AID 1467, 2008; inconclusive = small, poorly fitted or top-dose-only inhibition, or a rising curve; inactive = flat fitted curve, though single readings scatter; no compound was filed as active;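 also: 0% = full activity with enzyme and -100% = basal without enzyme; dose as in the result columns while the protocol names 77 µM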
Target sequence (P06280 whole entry, looked up): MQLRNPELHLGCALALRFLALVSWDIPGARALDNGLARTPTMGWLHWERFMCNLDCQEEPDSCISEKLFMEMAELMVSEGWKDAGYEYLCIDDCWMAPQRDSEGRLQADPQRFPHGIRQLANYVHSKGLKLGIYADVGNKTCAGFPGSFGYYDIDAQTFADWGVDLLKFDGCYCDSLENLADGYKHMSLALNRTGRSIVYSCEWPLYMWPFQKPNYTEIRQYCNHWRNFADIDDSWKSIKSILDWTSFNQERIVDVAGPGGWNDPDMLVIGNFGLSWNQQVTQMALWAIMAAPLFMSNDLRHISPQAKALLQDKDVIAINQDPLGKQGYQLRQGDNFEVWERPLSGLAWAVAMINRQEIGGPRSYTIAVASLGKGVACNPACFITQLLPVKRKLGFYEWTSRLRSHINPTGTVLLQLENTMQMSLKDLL
miR-21 reporter = qHTS Assay for Modulators of miRNAs and/orActivators of miR-21 | 340,000 tested, under 10 active | HeLa miR-21 FLuc reporter, luciferase, 48 h | Potency, µM (doses to about 38.3 µM), inactives show top-dose reporter change, positive = more light | AID 2288, 2010; active = well fitted rising curve with a large enough effect; inconclusive = small, poorly fitted or top-dose-only effect; inactive = no such curve, though single readings can be large or run the other way;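 also: % of control where 0% means no effect; miR-21 action dims this reporter so a rising signal means less miR-21 action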
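Using DMEM plus 10% FBS, HeLa miR-21-FLuc cells are incubated with test compounds (final up to about 40uM) for 48 hours; firefly luciferase signal is then imaged following reagent-mediated lysis.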
Starred values were filed as active, the others as inactive; [ ] = remark or other dose. Some of the compounds tested; the hit share may differ from the screen's.

For CC[C@H](C)[C@H](NC(=O)c1ccccc1)C(=O)NC(CC(=O)O)c1ccc(F)cc1 (stereo not given in full) the results were Rango release inh 12%, Rango-impB inh -0.9% and miR-21 reporter -2%.
Screening COc1cccc(OC)c1C(=O)NC(=S)Nc1ccc2c(c1)OCCO2 returned Rango release inh -26%, Rango-impB inh 6.2%, GLA inh pH 4.5 3 and miR-21 reporter -35%.
For Cc1ccc(NC(=O)CN2C(=O)NC(C)(CCc3ccccc3)C2=O)cc1 (stereo not given) the results were Rango release inh 6%, Rango-impB inh 2.9%, GLA inh pH 4.5 -6 and miR-21 reporter 7%.
For O=C(Nc1ccccc1C(=O)N1CCCCC1)NC1CCCCC1 the results were Rango release inh -8%, Rango-impB inh 1.8%, GLA inh pH 4.5 -11 and miR-21 reporter 1%.
O=C(Nc1cccc(-c2ccc(N3CCOCC3)nn2)c1)c1ccccc1Cl was read as Rango release inh 9% and Rango-impB inh -2.2%.
Screening CN(/N=C/c1ccc(Cl)cc1)c1ncc(Cl)cc1C(F)(F)F returned Rango release inh -20%, Rango-impB inh 3.4%, GLA inh pH 4.5 -8 and miR-21 reporter -15%.
C[C@H](CO)N1C[C@H](C)[C@@H](CN(C)Cc2ccccc2)Oc2c(NS(=O)(=O)c3cn(C)cn3)cccc2C1=O was read as Rango release inh -4% and Rango-impB inh -1.1%.
`COc1ccc(Cn2cccc(NC(=O)Nc3ccc(C#N)cc3)c2=O)cc1` gave Rango release inh -7%, Rango-impB inh -1.1%, GLA inh pH 4.5 8 and miR-21 reporter -11%.
For Cc1ccc(/C=C/c2nc3ccccc3[nH]2)o1 the results were Rango release inh -17%, Rango-impB inh inconclusive, GLA inh pH 4.5 -9 and miR-21 reporter 4%.
For CC1CC(C)CN(S(=O)(=O)N2CCC(C(=O)NCCc3ccccc3)CC2)C1 (stereo not given) the results were Rango release inh 4%, Rango-impB inh -0.4% and miR-21 reporter -8%.
`COc1ccc(S(=O)(=O)Nc2cccnc2)c(Cl)c1Cl` gave Rango release inh -11%, Rango-impB inh 3.0%, GLA inh pH 4.5 0 and miR-21 reporter -6%.
`Cc1ccc(NC(=O)CS(=O)CC(=O)Nc2ccccc2-c2ccc(C)o2)cc1` (stereo not given) gave Rango release inh -9%, Rango-impB inh inconclusive and miR-21 reporter 1%.
`COc1cccc(NC(=S)N(CCCN2CCOCC2)Cc2cn(C)c3ccccc23)c1` gave Rango release inh 0%, Rango-impB inh -1.1%, GLA inh pH 4.5 -2 and miR-21 reporter -22%.
Screening CCOCCCn1c(SCC(=O)Nc2ccc(NC(C)=O)cc2)nc2ccccc2c1=O returned Rango release inh 14%, Rango-impB inh 0.8% and miR-21 reporter -3%.
Screening CC1C(=O)Nc2ccccc2N1C(=O)c1ccc(O)cc1 (stereo not given) returned Rango release inh 5%, Rango-impB inh -0.2% and miR-21 reporter 3%.
`Cc1ccccc1NC(=O)CNc1ccccc1N1CCCCC1` gave Rango release inh -4%, Rango-impB inh 0.1%, GLA inh pH 4.5 -1 and miR-21 reporter -12%.
Screening O=C(CN1C(=O)C(=O)c2ccccc21)NC1CCCCC1 returned Rango release inh inconclusive, Rango-impB inh 0.1%, GLA inh pH 4.5 -5 and miR-21 reporter 1%.
For CSc1ccccc1C(=O)Nc1ccc2c(c1)OCCO2 the results were Rango release inh 16%, Rango-impB inh 0.9%, GLA inh pH 4.5 4 and miR-21 reporter -53%.
`CN1CCN(/N=C2/C(=O)Nc3ccc([N+](=O)[O-])cc32)CC1` gave Rango release inh -1%, Rango-impB inh inconclusive, GLA inh pH 4.5 -9 and miR-21 reporter -2%.
For Cn1cnnc1SCC(=O)NC1CC1 the results were Rango release inh 4% and Rango-impB inh 2.6%.
`CCN(Cc1ccccc1)C(=O)c1ccc(C)c(S(=O)(=O)N2CCCCC2)c1` gave Rango release inh -3% and Rango-impB inh 0.9%.
Screening CN(CC(=O)NCCc1ccc(S(N)(=O)=O)cc1)S(=O)(=O)/C=C/c1ccccc1 returned Rango release inh -6%, Rango-impB inh 0.2% and miR-21 reporter -1%.
Nc1n[nH]c(N)c1N=Nc1ccc(Cl)cc1 was read as Rango release inh 10%, Rango-impB inh -0.7%, GLA inh pH 4.5 -1 and miR-21 reporter -39%.
O=[N+]([O-])c1cccc(-c2cc(C(F)(F)F)n3nc(-c4ccccc4)cc3n2)c1 was read as Rango release inh 6%, Rango-impB inh -0.4%, GLA inh pH 4.5 7 and miR-21 reporter 6%.
For O=C(NC1CCCCC1)[C@@H]1CSC2c3ccccc3C(=O)N21 (stereo not given in full) the results were Rango release inh -8%, Rango-impB inh -0.7% and miR-21 reporter -1%.
Screening Cn1nc(CC(=O)Nc2ncc(Br)s2)c2ccccc2c1=O returned Rango release inh -5%, Rango-impB inh 0.8%, GLA inh pH 4.5 -9 and miR-21 reporter -11%.
For O=C(O)CSc1nccn1-c1cccc(Cl)c1 the results were Rango release inh 2%, Rango-impB inh -0.3%, GLA inh pH 4.5 -10 and miR-21 reporter -4%.
Screening CCCN1C2CCCC1CC(NC(=O)c1ccccc1)C2 (stereo not given) returned Rango release inh -16%, Rango-impB inh -0.5%, GLA inh pH 4.5 0 and miR-21 reporter -5%.
O=[N+]([O-])c1ccccc1C=NN1CCCCCC1 was read as Rango release inh -3% and Rango-impB inh 4.5%.
Screening O=C(N/N=C\C1CC=CCC1)c1ccc(Br)o1 (stereo not given) returned Rango release inh -6%, Rango-impB inh -0.6% and miR-21 reporter -35%.
Screening COc1ccc2oc(C(=O)CCC(=O)O)c(N)c2c1 returned Rango release inh -9%, Rango-impB inh -2.1%, GLA inh pH 4.5 9 and miR-21 reporter -4%.
For CC(=O)Nc1ccc(S(=O)(=O)Nc2ccccc2C(=O)N2CCOCC2)cc1 the results were Rango release inh 0%, Rango-impB inh 0.3% and miR-21 reporter 0%.
`Oc1ccccc1C1CC(c2cccs2)=NC(c2ccc(Cl)cc2)N1` (stereo not given) gave Rango release inh inconclusive, Rango-impB inh inconclusive, GLA inh pH 4.5 -3 and miR-21 reporter 7%.
Cc1cc(C=O)c(C)n1-c1ccc(NC2CCCC2)c([N+](=O)[O-])c1 was read as Rango release inh 0%, Rango-impB inh -2.3%, GLA inh pH 4.5 0 and miR-21 reporter -1%.
For COc1ccc(C)cc1NS(=O)(=O)c1cccc2nonc12 the results were Rango release inh 1%, Rango-impB inh 0.4%, GLA inh pH 4.5 0 and miR-21 reporter 2%.
CCC(C)c1ccc(S(=O)(=O)N2CCN(CC(O)COCC3CCCO3)CC2)cc1 (stereo not given) was read as Rango release inh 8% and Rango-impB inh 0.4%.
Screening Cc1cc(C)n2nc(SCC(=O)NCc3ccco3)nc2n1 returned Rango release inh 3%, Rango-impB inh 1.1%, GLA inh pH 4.5 -1 and miR-21 reporter 5%.
For Cc1nccn1CC(=O)c1ccc(O)c(O)c1 the results were Rango release inh -3% and Rango-impB inh -0.3%.
Screening CCCCN(CCCC)CCCNC(=O)C1CC(c2cc(C(F)(F)F)cc(C(F)(F)F)c2)=NO1 (stereo not given) returned Rango release inh -1% and Rango-impB inh inconclusive.
Cc1ccc(NS(=O)(=O)c2c(C(=O)N3CCOCC3)c(C)n(C)c2C)cc1C was read as Rango release inh -5%, Rango-impB inh -0.7% and miR-21 reporter 0%.
For CC(C)C[C@H]1CN=C(Nc2ccccc2)N1CC(C)C the results were Rango release inh 1% and Rango-impB inh -4.1%.
COC(=O)c1ccc(CSc2nc(C(F)F)cc(C)c2C#N)o1 was read as Rango release inh 4% and Rango-impB inh 2.1%.
`CC(C)CCn1cnc2c([nH]c3cccc(Cl)c32)c1=O` gave Rango release inh -3%, Rango-impB inh -0.1%, GLA inh pH 4.5 -10 and miR-21 reporter -8%.
`CC(=O)c1ccccc1NC(=O)CN1C(=O)NC2(CCCCCCC2)C1=O` gave Rango release inh 14% and Rango-impB inh -5.3%.
Screening O=C(CSc1nccn1-c1ccccc1)NCc1ccc(F)cc1 returned Rango release inh -18%, Rango-impB inh -3.2%, GLA inh pH 4.5 5[21.1 µM] and miR-21 reporter -2%.
For COC(=O)c1cccc(Nc2cc(C)nc(-c3ccccc3O)n2)c1 the results were Rango release inh 21%, Rango-impB inh -3.1%, GLA inh pH 4.5 -15 and miR-21 reporter 8%.
Screening O=C(NC1CCS(=O)(=O)C1)/C(=C\c1ccco1)NC(=O)c1ccccc1 (stereo not given) returned Rango release inh -7%, Rango-impB inh 0.5%, GLA inh pH 4.5 0 and miR-21 reporter 4%.
For O=C(NCC1CCCO1)c1ccc(NS(=O)(=O)c2cccc([N+](=O)[O-])c2)cc1 (stereo not given) the results were Rango release inh -1%, Rango-impB inh 2.6%, GLA inh pH 4.5 -13 and miR-21 reporter -5%.
O=C(Nc1ccccc1F)c1cc2c(s1)-c1ccccc1S(=O)(=O)C2 was read as Rango release inh -12%, Rango-impB inh -2.9%, GLA inh pH 4.5 -2 and miR-21 reporter 1%.
CCOC(=O)N1CCc2c(sc3nc(SC(C)C)n(N)c(=O)c23)C1 was read as Rango release inh -4%, Rango-impB inh -0.9%, GLA inh pH 4.5 -2 and miR-21 reporter -3%.

Overlap with the part before: 6 entries, then new ones.
Screening O=C(CSc1nccn1-c1ccccc1)NCc1ccc(F)cc1 returned Rango release inh -18%, Rango-impB inh -3.2%, GLA inh pH 4.5 5[21.1 µM] and miR-21 reporter -2%.
For COC(=O)c1cccc(Nc2cc(C)nc(-c3ccccc3O)n2)c1 the results were Rango release inh 21%, Rango-impB inh -3.1%, GLA inh pH 4.5 -15 and miR-21 reporter 8%.
Screening O=C(NC1CCS(=O)(=O)C1)/C(=C\c1ccco1)NC(=O)c1ccccc1 (stereo not given) returned Rango release inh -7%, Rango-impB inh 0.5%, GLA inh pH 4.5 0 and miR-21 reporter 4%.
For O=C(NCC1CCCO1)c1ccc(NS(=O)(=O)c2cccc([N+](=O)[O-])c2)cc1 (stereo not given) the results were Rango release inh -1%, Rango-impB inh 2.6%, GLA inh pH 4.5 -13 and miR-21 reporter -5%.
O=C(Nc1ccccc1F)c1cc2c(s1)-c1ccccc1S(=O)(=O)C2 was read as Rango release inh -12%, Rango-impB inh -2.9%, GLA inh pH 4.5 -2 and miR-21 reporter 1%.
CCOC(=O)N1CCc2c(sc3nc(SC(C)C)n(N)c(=O)c23)C1 was read as Rango release inh -4%, Rango-impB inh -0.9%, GLA inh pH 4.5 -2 and miR-21 reporter -3%.
COCCN1C(=O)C(=O)/C(=C(/O)c2ccc3c(c2)OCCO3)C1c1ccc(C(=O)OC)cc1 (stereo not given) was read as Rango release inh 1%, Rango-impB inh 2.2%, GLA inh pH 4.5 -7 and miR-21 reporter 0%.
O=C(NC1CCCC1)C1CCN(C(=O)c2ccc(-c3ccccc3)cc2)CC1 was read as Rango release inh -8%, Rango-impB inh 1.1%, GLA inh pH 4.5 -11 and miR-21 reporter -1%.
Screening Cc1ccc(NN2C(=O)C=CC2=O)cc1 returned Rango release inh 7%, Rango-impB inh 1.8%, GLA inh pH 4.5 4 and miR-21 reporter -4%.
For COc1ccc(CCNC(=O)C(=O)NCC2OCCN2S(=O)(=O)c2ccc(C)cc2)cc1OC (stereo not given) the results were Rango release inh -11%, Rango-impB inh -2.9% and miR-21 reporter 15%.
CCC1(C)Cc2c(C#N)c(N)n(-c3ccccc3)c(=O)c2CO1 (stereo not given) was read as Rango release inh 1%, Rango-impB inh 2.4%, GLA inh pH 4.5 -5 and miR-21 reporter -6%.
Screening O=C(C1CCC1)N1CCN(S(=O)(=O)c2ccc(Br)cc2Cl)CC1 returned Rango release inh -7% and Rango-impB inh 0.9%.
For O=C(C1CCCN(Cc2ccccc2Cl)C1)N1CCCCC1 (stereo not given) the results were Rango release inh 3%, Rango-impB inh -2.7% and miR-21 reporter inconclusive.
`CC(Nc1cccnc1)=C(C#N)C#N` gave Rango release inh 0%, Rango-impB inh -4.2%, GLA inh pH 4.5 5 and miR-21 reporter 0%.
